# TRPML1 agonist: qHTS for Agonists of the Human Mucolipin Transient Receptor Potential 1 (TRPML1); AID 624414, 2012; hit rate 0.12% among 410,000; activation, % (test concentration not listed); TRPML1-expressing cells, Ca2+ dye fluorescence, FDSS; host cell line not named in the record; reference of the full effect not given here; in the data active = activation above about 50%; inconclusive = about 30% to 50%; inactive = below about 30%; note: 0% is about no effect; the text of the record puts the active cut at 80%
# Target sequence (Q9GZU1 whole entry, looked up): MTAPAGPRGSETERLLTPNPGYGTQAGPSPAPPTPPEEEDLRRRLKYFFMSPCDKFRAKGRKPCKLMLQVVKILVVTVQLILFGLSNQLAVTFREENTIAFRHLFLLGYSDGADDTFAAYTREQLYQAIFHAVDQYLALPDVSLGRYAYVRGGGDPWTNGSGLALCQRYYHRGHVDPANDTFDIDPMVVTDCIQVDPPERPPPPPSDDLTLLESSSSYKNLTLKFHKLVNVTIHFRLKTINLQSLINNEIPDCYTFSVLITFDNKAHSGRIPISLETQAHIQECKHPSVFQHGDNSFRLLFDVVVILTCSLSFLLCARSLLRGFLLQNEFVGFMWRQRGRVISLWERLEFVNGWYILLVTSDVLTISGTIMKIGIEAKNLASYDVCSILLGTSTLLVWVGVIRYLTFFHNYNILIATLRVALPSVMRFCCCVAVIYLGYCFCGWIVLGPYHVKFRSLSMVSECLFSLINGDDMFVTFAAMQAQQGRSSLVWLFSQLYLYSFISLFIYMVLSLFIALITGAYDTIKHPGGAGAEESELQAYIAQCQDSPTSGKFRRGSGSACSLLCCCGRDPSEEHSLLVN
#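 Tet-induced TRPML1-DL cells, 1,500 per well, cultured overnight, were loaded with a no-wash Ca2+ dye for 45–90 min. Calcium fluorescence was recorded on the FDSS for 110 s after compound addition, before the EC80 agonist (4 uM 54-4) was added.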
# PINK1 expr mod: A Quantitative High throughput Screen to Identify Chemical Modulators of PINK1 Expression. hit rate 0.2% among 410,000. PINK1 immunofluorescence, high-content cytometry, 24 h. Potency, µM (titrated, usually from 76.6 µM), inactives show at the top dose activation (PINK1 increase), most hits filed as activators; active = well fitted activation curve with a large enough effect; inconclusive = small, poorly fitted or top-dose-only effect; inactive = flat fitted curve, though single readings scatter; cell line not stated here;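 note: potency is the fitted concentration of half-maximal effect; % of control where 0% means no effect; nearly all actives have a fitted effect of over 65% in size; a mitochondrial uncoupler was the plate control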
#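 Decision-based qHTS: stable cells, 24 h exposure to five compound concentrations, CCCP as control. Fixed cells stained for PINK1 plus nuclear, mitochondrial and cell markers, cytometer read.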
# * = called active by the depositor.
molecule,PINK1 expr mod,TRPML1 agonist
Cc1ccc(C)c(NC(=O)c2cnc(N3CCCC3)nc2C)c1,0.6%,3.8
Cc1cc(C)n(-c2nc3ccccc3nc2Nc2cccc(C(F)(F)F)c2)n1,2.0%,2.5
CCOc1ccc(-c2nnc(SCC(=O)Nc3cc(F)ccc3F)o2)cc1,1.8%,-0.5
Cc1ccc(C(=O)c2c(N)c(C(=O)Nc3ccccc3Cl)c3ccccn23)cc1,2.2%,1.0
CC(C)NC(=O)COC(=O)c1ccccc1OCC(=O)Nc1ccc(Br)cc1,0.0%,-0.2
CC(=O)c1ccc(NC(=O)CSc2nnc(NC(=O)NC3CCCCC3)s2)cc1,1.0%,1.6
COc1cccc(NC(=O)c2oc3ccccc3c2NC(=O)C23CC4CC(CC(C4)C2)C3)c1,-1.8%,-0.4
CCOc1ccc(NC(=O)CN2CCN(C3CCCCC3)C(=O)C2=O)cc1,2.1%,-1.0
O=C(CCC1N=C2c3ccccc3N=C(SCc3ccc(F)cc3)N2C1=O)NCCc1ccccc1 (stereo not drawn),0.9%,1.9
CC(C)(C)C(=O)Nc1ccc2nc(SCC(=O)N3CCc4ccccc43)sc2c1,-1.1%,0.7
COc1ccccc1-c1noc(CCC(=O)Nc2ccc(C)cc2C)n1,1.4%,-1.2
Cc1ccn2c(=O)cc(COc3ccc(NC(=O)C(C)(C)C)cc3)nc2c1,0.1%,-0.7
CCOC(=O)c1cnn(-c2cccc(F)c2)c1C1CCNCC1,1.3%,-0.8
O=C(/C=C/c1ccccc1Cl)Nc1nc(-c2cccs2)ns1,7.2%,1.8
Cc1ccc(NC(=O)Cn2cc3c(n2)CCCC3)c(C)c1,1.3%,-1.1
Cc1ccccc1C1=CCN(c2ncc(NC(=O)c3ccc(Cl)cc3)cc2C(=O)O)CC1,0.1%,-0.3
C=C(C)Cn1c(SCC(=O)c2ccc(OC)cc2)nc2sc3c(c2c1=O)CCCC3,0.6%,-0.6
CC(C(=O)NCc1ccccc1)n1ccc2cc(S(=O)(=O)N3CCCC3)ccc21 (stereo not drawn),0.5%,0.5
Cc1c(C(=O)Nc2cccc(C(F)(F)F)c2)oc2ccc(S(=O)(=O)N3CCC4(CC3)OCCO4)cc12,1.8%,-0.2
O=C(CSc1nc2ccccc2nc1Cc1ccc(Cl)cc1)N1CCCc2ccccc21,-0.5%,1.0
CCOc1ccccc1NC(=O)c1cn(C2CCCC2)c(=O)c2c1c1ccccc1n2C,1.4%,-0.7
COc1ccc(NC(=O)CC(C)S(=O)(=O)c2cc3c(cc2C)NC(=O)CO3)cc1OC (stereo not drawn),6.4%,5.7
Cc1ccccc1NC(=O)C1CCN(S(=O)(=O)c2c(C)noc2/C=C/c2ccco2)CC1,2.1%,0.0
Cc1ccc(NC(=O)c2cc3nc(-c4ccccc4)cc(-c4ccccc4)n3n2)cc1,1.5%,0.5
CC(C)CCn1c(SCc2cccc(F)c2)nc2ccsc2c1=O,0.0%,3.2
Cc1cc(C)cc(NC(=O)CSc2nc3c([nH]c4ccccc43)c(=O)n2-c2ccc(F)cc2)c1,3.0%,1.8
Cc1cccc(C(=O)Nc2ccc3nc(SCC(=O)N4CCCC4)sc3c2)c1,-0.4%,3.3
COc1ccc(N2CCN(CCCNC(=O)C3COc4ccccc4C3)CC2)cc1 (stereo not drawn),-2.8%,-0.5
COc1cccc(CNC(=O)Cn2c(=O)nc(-c3ccccc3F)c3cc(Cl)ccc32)c1,1.6%,0.5
CC(C)Oc1ccc(CNC(=O)Cn2c(-c3cccs3)cc3ccccc32)cc1,1.2%,1.9

# (cont.)
molecule,PINK1 expr mod,TRPML1 agonist
CCOc1ccc(CN2C(=O)c3ccccc3Sc3ccc(C(=O)NCc4ccc5c(c4)OCO5)cc32)cc1,0.4%,0.6
CCC(Sc1nc2c(sc3ccccc32)c(=O)n1CCCC(=O)NC1CCCC1)C(=O)Nc1cccc(OC)c1 (stereo not drawn),0.2%,0.9
COc1ccc2c(c1)c1nnc(SC(C)C)nc1n2C,1.3%,-1.0
CC(C)c1ccc(NC(=O)CCNS(=O)(=O)c2ccc3c(c2)oc(=O)n3C)cc1,0.0%,-0.5
COc1ccccc1-c1nnc(SCC(=O)c2ccc(Cl)cc2)n1-c1ccccc1,-1.3%,5.1
COc1cc(NC(=O)CSc2nc(-c3ccc(C(C)C)cc3)no2)cc(OC)c1,11%,2.4
O=c1c2sc3ccccc3c2n(Cc2cccc(Cl)c2)c(=O)n1Cc1ccc(F)cc1,1.0%,0.4
O=C(Cc1ccc(OCC2CCCCC2)cc1)NO,1.2%,-0.1
Cc1cn(C)c(CC(=O)NCc2ccccc2Cl)c1C(=O)O,8.2%,0.2
CCCOc1cccc(C2c3c(oc4ccc(F)cc4c3=O)C(=O)N2CCCN2CCOCC2)c1 (stereo not drawn),-0.9%,1.2
COc1ccc(NC(=O)Cn2c(=O)oc3cc(S(=O)(=O)N4CCCCCC4)ccc32)cc1OC,0.4%,-0.5
CCOC(=O)c1c(C)[nH]c(CCC(=O)NC(C)c2ccccc2)c1C (stereo not drawn),-0.7%,3.9
CC1CCCCN1C(=O)c1ccc2c(c1)N(Cc1cccc(Cl)c1)C(=O)c1ccccc1S2=O (stereo not drawn),3.5%,-0.5
COc1ccc(CCCc2nnc(SCC(=O)Nc3cc(F)ccc3C)o2)cc1,2.5%,1.0
Cc1oc(-c2ccc(C(=O)NCCc3ccc(Cl)cc3)cc2)nc1CSc1ccccc1,16%,1.2
Cc1nn(CCCC(=O)Nc2ccccc2C(F)(F)F)c(=O)c2nn(-c3ccccc3)c(C)c12,3.3%,0.7
O=C(CCCCn1c(=O)[nH]c2ccsc2c1=O)N1CCN(c2cccc(C(F)(F)F)c2)CC1,-0.1%,0.3
Cc1ccc(CNC(=O)c2cnc(N(C)C)nc2)cc1,1.0%,2.2
CC(C)c1ccc(NC(=O)Cn2cc(S(=O)(=O)Cc3ccccc3Cl)c3ccccc32)cc1,1.3%,1.2
O=C1CSC2(C(=O)N(Cc3c(F)cccc3Cl)c3ccccc32)N1c1ccc(F)c(F)c1 (stereo not drawn),-2.1%,2.0
CCN(CC)C(=O)Cn1cc(SCC(=O)Nc2ccccc2C)c2ccccc21,-0.9%,-0.3
COc1ccc(C)cc1N(C)C(=O)c1sc2nc3n(c(=O)c2c1C)CCCCC3,-0.1%,-0.5
O=C(NCc1ccccc1)c1c2c(nc3ccccc13)C(=O)N(C1CCCCC1)C2,0.8%,0.7
COc1ccc(NC(=O)c2c(NC(=O)COc3ccccc3)sc3c2CCC(C(C)(C)C)C3)cc1 (stereo not drawn),-0.3%,-0.2
CCC1CN(C(=O)Nc2cccc3c2CCCC3)c2cc(Cl)ccc2O1 (stereo not drawn),1.5%,2.5
O=C(Cc1cccc([N+](=O)[O-])c1)NCc1nc2cccnc2n1Cc1ccc(F)cc1,-0.5%,2.5
CCOC(=O)c1cnc2ccc(Cl)cc2c1Nc1ccc(N2CCOCC2)cc1,-1.3%,1.4
CCOc1ccc(CNS(=O)(=O)c2ccc3[nH]c(=O)ccc3c2)cc1,-3.7%,1.1
CCCC1=Nc2cc(C(=O)NCC(C)c3ccccc3)ccc2Sc2ccccc21 (stereo not drawn),2.5%,1.9
COc1ccc(OC)c2sc(N3CCN(C(=O)C4CC4)CC3)nc12,2.2%,0.5

# As entered above:
# CC1CCCCN1C(=O)c1ccc2c(c1)N(Cc1cccc(Cl)c1)C(=O)c1ccccc1S2=O (stereo not drawn) in PINK1 expr mod: 3.5%
# Cc1ccccc1C1=CCN(c2ncc(NC(=O)c3ccc(Cl)cc3)cc2C(=O)O)CC1 in PINK1 expr mod: 0.1%

# Additional records follow:
molecule,PINK1 expr mod,TRPML1 agonist
O=C(COC(=O)C(Cc1c[nH]c2ccccc12)NC(=O)c1ccc(Cl)cc1)c1ccc(Cl)cc1 (stereo not drawn),0.3%,1.2
COc1ccc(-n2cc(C(=O)OCc3ccc(F)c(F)c3)c3ccccc3c2=O)cc1,0.3%,0.6
Cc1cccc(OCC(=O)N(Cc2ccccc2)c2ccccn2)c1,-1.5%,2.8
CCOc1ccc(C(=O)c2cn(CC(=O)Nc3ccc(Cl)cc3)c3cc4c(cc3c2=O)OCCO4)cc1,1.7%,0.8
O=C(Cn1nc(N2CCN(c3ccccc3)CC2)ccc1=O)Nc1ccc(F)cc1F,3.0%,1.3
Cc1c(C(=O)Nc2ccccc2Br)oc2ccc(S(=O)(=O)N3CCCCC3)cc12,3.5%,0.2
O=C(NCCCO)C(=O)NCC(c1ccc2c(c1)OCO2)N1CCOCC1 (stereo not drawn),0.5%,1.3
O=[N+]([O-])c1ccc(S(=O)(=O)N2CCn3cccc3C2c2ccc(Br)cc2)cc1 (stereo not drawn),0.5%,0.6
COc1cccc(-c2cc(C(F)(F)F)nc(NCCc3ccc(OC)c(OC)c3)n2)c1,6.2%,2.4
Cc1ccc(C2=Nc3ccccc3N(CC(=O)NCc3ccc(F)cc3)C(=O)C2)cc1C,-0.3%,0.2
COc1c(C)cc(Br)cc1C(=O)Nc1ccc(-c2nc3ncccc3o2)cc1,-1.8%,0.7
CCc1nn(CC(=O)NC2CC2)c(=O)c2cc3ccccc3n12,0.9%,-0.7
Cc1ccc2c(CNCc3ccc(C)o3)c(C(=O)O)n(Cc3ccc(F)cc3)c2c1,-0.8%,-0.3
Cc1ccccc1CN1c2ccccc2-c2nc(SCC(N)=O)ncc2S1(=O)=O,1.4%,0.7
Cc1cccc(CNC(=O)c2ccc(NC(=O)N3CCSc4ccccc43)cc2)c1,-1.5%,0.8
CCOC(=O)c1c(NC(=O)c2nc(S(C)(=O)=O)ncc2Cl)sc(C(C)=O)c1C,2.6%,-0.6
COc1ccc(-c2noc(-c3ccc(N4CCN(c5ccccc5OC)CC4)c([N+](=O)[O-])c3)n2)cc1,2.1%,-0.4
COc1cc(C2C(C(=O)Nc3ccccc3)=C(C)Nc3nc(SCC(=O)c4ccc(C)cc4)nn32)ccc1O (stereo not drawn),1.7%,1.2
CCOC(=O)c1c(C)[nH]c(C)c1S(=O)(=O)N1CCC(C(=O)NCc2ccccc2Cl)CC1,0.2%,2.7
Cc1ccc(C)c(NC(=O)C(Cc2ccccc2)N2Cc3ccccc3C2=O)c1 (stereo not drawn),-7.6%,4.8
COc1cc(Cl)c(S(=O)(=O)N2CCN(c3c(C)cccc3C)CC2)cc1Cl,-1.1%,1.7
Cc1ccc(C)c(N2CCN(C(=O)c3cc(S(=O)(=O)N4CCCC4)c[nH]3)CC2)c1,1.0%,1.1
CC(C)CCNC(=O)c1ccc2c(c1)NC(=O)C(CS(=O)(=O)Cc1cccc(Br)c1)N2 (stereo not drawn),1.2%,0.8
Nc1c(Br)cc(Br)c2cccnc12,-0.9%,2.6
CCCCN(C)CCNC(=O)c1c(C)oc2ncnc(N3CCOCC3)c12,-1.1%,1.6
COC(=O)CN1C(C(=O)c2ccccc2)=C(OC(=O)c2ccccc2)c2ccccc2S1(=O)=O,1.4%,1.1
Cc1cccc(OCCCSc2nc(-c3ccc(C(C)(C)C)cc3)nc3cc(=O)[nH]n23)c1C,7.3%,0.3
Cc1ccc(OCC(=O)N(c2ccc(C)cc2)S(=O)(=O)c2ccc(Cl)cc2)cc1,5.8%,-0.6
CCOc1ccccc1NC(=O)CSc1nccn1-c1ccc(Cl)cc1,-6.9%,1.7
COc1cc(NC(=O)CSc2nnc(C)n3c2cc2oc(C)cc23)cc(OC)c1,-1.4%,-0.9

# (continued)
molecule,PINK1 expr mod,TRPML1 agonist
Cc1ccc(CNC(=O)CCN2C(=O)COc3ccc(C)cc32)cc1,1.3%,0.2
CCCOc1ccc(OC(=O)c2c(-c3ccccc3Cl)noc2C)cc1,0.8%,0.9
CCS(=O)(=O)c1nc(S(=O)(=O)c2ccc(C)cc2)c(NCC(C)C)s1,1.2%,2.1
Cc1ccc(CNC(=O)CN2C(=O)CSc3ccc(S(=O)(=O)N4CCCC4)cc32)cc1,0.2%,1.8
CCn1ccc2cc(S(=O)(=O)N3CCCN(C(=O)Nc4ccccc4OC)CC3)ccc21,0.6%,3.3
CCc1ccc(S(=O)(=O)c2nnn3c2nc(N2CCCC(C)C2)c2cc(Cl)ccc23)cc1 (stereo not drawn),-2.1%,3.6

# Reprinted at random: 6 compounds from above.
molecule,PINK1 expr mod,TRPML1 agonist
Cc1cccc(C(=O)Nc2ccc3nc(SCC(=O)N4CCCC4)sc3c2)c1,-0.4%,3.3
Cc1cc(C)cc(NC(=O)CSc2nc3c([nH]c4ccccc43)c(=O)n2-c2ccc(F)cc2)c1,3.0%,1.8
COc1ccccc1-c1nnc(SCC(=O)c2ccc(Cl)cc2)n1-c1ccccc1,-1.3%,5.1
Cc1ccccc1C1=CCN(c2ncc(NC(=O)c3ccc(Cl)cc3)cc2C(=O)O)CC1,0.1%,-0.3
CCN(CC)C(=O)Cn1cc(SCC(=O)Nc2ccccc2C)c2ccccc21,-0.9%,-0.3
COc1ccc(NC(=O)c2c(NC(=O)COc3ccccc3)sc3c2CCC(C(C)(C)C)C3)cc1 (stereo not drawn),-0.3%,-0.2

# Source: PubChem

# The list is partial. The share of hits here may be higher or lower than overall.
